# GIV-Gai inh: inhibitors of GIV peptide binding to Galpha-i3, primary screen, biochemical, fluorescence polarization, FITC-GIV GBA peptide, rat Galphai3. percent of control (FP), % (test concentration not listed). hit rate 0.42% among 210,000. 90 min; active compounds read low; scaled: aluminum fluoride 0%, vehicle 100%;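 active = replicate mean at 85% of control or lower, very high polarization wells dropped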;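 also: lower values mean more displacement of the GIV peptide from Galpha-i3; wells of about 15 µL received 100 nL stock; the first replicate is given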
# Target sequence (P08753 whole entry, looked up): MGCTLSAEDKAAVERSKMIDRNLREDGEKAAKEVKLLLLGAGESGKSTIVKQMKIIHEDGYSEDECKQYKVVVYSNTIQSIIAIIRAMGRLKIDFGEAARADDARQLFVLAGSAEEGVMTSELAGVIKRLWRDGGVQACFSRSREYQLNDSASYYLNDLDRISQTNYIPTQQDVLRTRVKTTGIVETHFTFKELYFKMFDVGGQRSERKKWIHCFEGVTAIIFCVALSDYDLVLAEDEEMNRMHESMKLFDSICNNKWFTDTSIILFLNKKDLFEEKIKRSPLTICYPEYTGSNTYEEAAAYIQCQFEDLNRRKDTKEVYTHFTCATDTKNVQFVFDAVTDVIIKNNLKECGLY
# Sa growth inh: S. aureus growth inhibition at 42 and 30 °C, primary screen, LtaS inhibitor project, RN4220, two temperatures; OD600, 20 h, 42 °C; active compounds read low; relative growth, % (no concentration beside the values); hit rate 0.53% among 170,000;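 active = growth at 42 °C up to 50% and 20 or more points under that at 30 °C, or under 10% at both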;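 also: 300 nL library stock went into each well; scaled to the means of positive and negative controls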
# HCMV NEC inh: inhibitors of HCMV UL50-UL53 interaction, biochemical, HTRF; inhibition, % (test concentration not listed); HCMV UL50-UL53 nuclear egress complex (human cytomegalovirus); normalized percent inhibition; hit rate 0.15% among 190,000;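 active = both replicates at 50% or more, plus weaker picks with an unusually low signal ratio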;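 also: stock transfer was 100 nL into about 20 µL; 0% = negative control wells and 100% = wells with untagged competitor protein; inactives centre near -12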
# Sa growth inh second temp: further read-out of Sa growth inh, marked with its call; relative growth, %; measured here: growth at 30 °C;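 optical density after 20 h as mean of two plates; 100% = untreated growth and lower means inhibition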
# Numbers without * were called inactive; nt = not tested or not shown; & = joins results of further samples.
SMILES | GIV-Gai inh | Sa growth inh | Sa growth inh second temp | HCMV NEC inh
CCOc1ccc(OCc2ccc(C(=O)NCc3cccnc3)o2)cc1 | 108 | 87 | 91 | -34
O=C(O)/C=C/c1ccc(Cl)cc1 | 99 | 81 | 91 | nt
Cn1c(=O)c2cc(C(=O)NCCCN3CCN(c4cccc(Cl)c4)CC3)sc2c2ccccc21 | 99 | 103 | 88 | -8
CCOC(=O)c1nc(Nc2ccc(NC(C)=O)cc2)c2c(C)noc2n1 | 108 | nt | nt | -57
COc1ccccc1NC1CCCCC1NS(=O)(=O)c1ccccc1 (stereo unspecified) | 103 | 99 | 83 | nt
O=C(CN1CC(=O)Nc2ccccc21)Nc1ccc(S(=O)(=O)N2CCCC2)cc1 | nt | 61 | 70 | -12
CCOc1cc(C)c(Cl)cc1S(=O)(=O)n1nnc2ccccc21 | 105 | 100 | 95 | -4
CSc1ncc(C(=O)NCc2cccc(C)c2)c(-c2ccccc2)n1 | 98 | 84 | 105 | nt
Cc1ccccc1-c1nnc(SC(C)C)o1 | nt | 110 | 92 | -9
CC1(C)CC(=O)C2=C(C1)Nc1ccccc1N(C(=O)c1ccccc1)C2c1ccc2c(c1)OCO2 (stereo unspecified) | 106 | nt | nt | -15
O=C(/C=C/Nc1ccccc1F)c1cccs1 | 104 | 69 | 65 | -49
O=C(O)CSc1nnc2c(n1)[nH]c1ccccc12 | 103&102 | 108 | 87 | nt
COC(=O)C1C(=O)CC(C)(O)C(C(=O)OC)C1c1ccccc1 (stereo unspecified) | nt | 80 | 93 | 3
COc1cccc(C(c2c(O)cc(C)n(Cc3ccco3)c2=O)N2CCC(C)CC2)c1 (stereo unspecified) | 98 | 104 | 90 | nt
COC(=O)C(CC(C)C)NC(=O)c1ccc(OC(C)=O)cc1 (stereo unspecified) | 102 | 113 | 100 | -10
CCC1=C(c2ccc(C)cc2)S(=O)(=O)N=C1N1CCC(C(=O)NC2CC2)CC1 | 100 | 103 | 93 | -41
COc1ccc(-n2c(C)nc3c(cnn3-c3ccc(F)cc3)c2=O)cc1 | 103 | 113 | 92 | -8
Cc1ccccc1NC(=O)c1[nH]cnc1C(=O)NN | 99 | 89 | 70 | -18
Cc1ccc(-c2onc3ccc(C(=O)O)cc23)cc1 | 106 | 95 | 66 | -125
CC(C)C(NS(=O)(=O)c1ccc2c(c1)C(C)(C)C(=O)N2C)C(=O)NCc1ccc(F)cc1 (stereo unspecified) | 110 | 113 | 86 | nt
O=C(CCc1nc2cccnc2n1Cc1cccs1)Nc1ccc2c(c1)OCCO2 | 129 | 94 | 93 | -10
CC(=O)n1cc(/C=C2\N=C(c3ccccc3C)OC2=O)c2cc(Br)ccc21 | 108 | nt | nt | 0
Cc1ccc(S(=O)(=O)N2CCOC2=O)cc1 | nt | 115 | 83 | -12
COc1ccc(Nc2c(-c3ccc(C)cc3)c(=O)c2=O)cc1OC | 121 | nt | nt | -30
COc1cc2ccccc2cc1C(=O)OCC(=O)NC1CC1 | nt | 88 | 96 | -23
COc1ccc(CN2C(=O)c3cccnc3C2=O)cc1S(=O)(=O)NCc1ccc(C)cc1 | 95 | 92 | 87 | -37
N#Cc1cc2ccc(O)cc2oc1=N | -3.8* | 55 | 21 | -28
COc1ccc(NC(=S)NCC2CCCO2)cc1 (stereo unspecified) | 100 | 89 | 101 | nt
COc1ccc(-c2cc(OC(=O)c3ccccc3C)c3c(C)oc(C)c3c(=O)c2)cc1 | 105 | 91 | 92 | -73
CCN1CCCC1CNC(=O)c1ccccc1Oc1ccccc1 (stereo unspecified) | nt | 100 | 91 | -10

# (further entries)
SMILES | GIV-Gai inh | Sa growth inh | Sa growth inh second temp | HCMV NEC inh
NNC(=O)c1cc(COc2c(Cl)cccc2Cl)on1 | 104 | 92 | 67 | -30
Cc1cccc(C)c1NC(=O)Cn1c(-c2ccc3c(c2)OCO3)cn(-c2ccccc2)c1=O | 99 | 140 | 85 | -1
Nc1nc2c3ccccc3nc(C3CC3)n2n1 | 99 | 102 | 86 | -11
Brc1ccc(OCc2nnc3n2CCC3)cc1 | nt | 116 | 80 | -20
CCn1c(CN2CCCC2)nc2ccccc21 | 106 | nt | nt | 5
S=C(NCCN1CCOCC1)Nc1ccc(Cl)cc1 | 108 | 91 | 98 | nt
COC(=O)CSc1nc2sc3c(c2c(=O)n1-c1ccccc1)CC(C)(C)OC3 | 105 | nt | nt | 4
Cc1ccc(/C=N/NC(=O)CCc2c(C)n[nH]c2C)cc1 | 119 | 81 | 70 | -12
COc1ccc(Cn2ccc3nc(C)c(C(=O)Nc4cc(OC)cc(OC)c4)cc3c2=O)cc1 | 104 | nt | nt | -19
CC1CN(C(=O)C(C)OC(=O)c2ccc(-c3ccccc3)cc2)CC(C)O1 (stereo unspecified) | nt | 114 | 94 | 5
N#Cc1ccc(-c2ccc3c(c2)OCCO3)[nH]c1=S | 105 | 115 | 101 | -9
CC(NC(=O)Nc1cccc(Cl)c1Cl)c1ccc2c(c1)OCO2 (stereo unspecified) | 102 | 117 | 95 | -12
CCC(C(=O)NCCc1ccc(OC)c(OC)c1)n1nc(C)c2sc3ccccc3c2c1=O (stereo unspecified) | 104 | 97 | 93 | -9
C=CCn1c(=O)c(=O)n(Cc2ccc(C(=O)NCCc3ccc(C)cc3)cc2)c2ccccc21 | 99 | nt | nt | 0
COc1ccc(CN(Cc2cc(OC)c(OC)c(OC)c2)C(=O)C(C)(C)C)cc1 | 107 | 108 | 96 | -5
COc1ccc(-c2noc(-c3ccc(N4CCOCC4)c([N+](=O)[O-])c3)n2)cc1 | 100 | 80 | 92 | -6
CC(C)(COC(=O)c1ccccc1)N=C1NS(=O)(=O)c2ccccc21 | nt | 92 | 80 | 5
COc1ccc(CC(=O)Nc2ccc(O)c(-c3nc4ccccc4o3)c2)cc1 | 98 | 115 | 93 | nt
O=C(COc1ncnc2sccc12)N1CCCCC1 | nt | 107 | 116 | -2
O=C(NCC1CCCO1)c1cn(-c2ccccc2)nc1-c1cccs1 (stereo unspecified) | nt | 101 | 72 | -31
O=C(O)CCCC(=O)Nc1ccccc1SCc1noc(-c2cccs2)n1 | 102 | 114 | 102 | -12
O=C(Cn1ncc2c3ccccc3n(Cc3ccccc3)c2c1=O)NC1CC1 | 106 | 109 | 83 | nt
COc1ccc(Nc2nc(N)nc(CN3CC(C)CC(C)C3)n2)cc1 (stereo unspecified) | 103 | 91 | 76 | -32
O=C(Cc1ccc(F)cc1)N1CC(OCc2ccc(F)cc2Cl)C1 | 99 | nt | nt | -21
COc1ccccc1CNC(=O)C1CCN(c2ncnc3c2nc2n3CCCCC2)CC1 | 105 | 134 | 97 | nt
CCN(c1ccccc1)c1nnc(NC(=O)Nc2ccc(Br)c(C)c2)s1 | 100 | 120 | 93 | -16
O=C(CSc1ccccn1)NCc1ccc2c(c1)OCO2 | 105 | 94 | 51 | -16
CCOc1ccc2c(c1)C(SCC(=O)O)CC1(CCCC1)O2 (stereo unspecified) | 100 | 96 | 100 | -7
O=C(Nc1nnc(S(=O)(=O)N2CCCc3ccccc32)s1)c1ccccc1Cl | 107 | 127 | 58 | -19
CCC1SC(=NC(=O)c2cccs2)NC1=O (stereo unspecified) | 103 | 188 | 75 | -17

# Next part
# Every second line gives: GIV-Gai inh, Sa growth inh, Sa growth inh second temp, HCMV NEC inh
O=C(NCc1cccs1)C(CSCc1ccccc1)N1Cc2ccccc2C1=O (stereo unspecified)
  106, 99, 90, -1
CCC(C)OC(=O)/C(C#N)=C\c1ccc(-c2ccccc2Cl)o1 (stereo unspecified)
  104, 105, 86, -40
Cc1ccc(NC(=O)CN(C)C(=O)CSc2nc(C)cs2)cc1
  nt, 100, 96, -14
CCCn1c2c(c(=O)[nH]c1=O)C(=O)C(C)N2 (stereo unspecified)
  nt, 101, 91, -4
CCN(CC)c1ccc(NC(=O)C(NS(=O)(=O)c2cccs2)C(C)C)c(C)c1 (stereo unspecified)
  109, 89, 97, 19
Cc1c(C(=O)N2CCCCCC2)sc2ncnc(N3CCN(c4ccccc4)CC3)c12
  103, 96, 94, nt
CSc1sc(C(=O)NC(C)C)c(-c2cccs2)c1C#N
  104, 90, 89, -24
COc1cc2c(C#N)c(N(C)CCc3ccc(OC)c(OC)c3)nc(N)c2c(N)n1
  nt, 69, 95, -11
Cc1ccc(NC(=O)c2cnn(-c3ccc(C)c(Cl)c3)c2C2CCNCC2)cc1Cl
  103, nt, nt, -3
Cc1cccnc1-n1c(C)c(C)c2c1ncn1nc(CSc3nc4ccccc4o3)nc21
  102, nt, nt, -9

# Further entries follow.
# Every second line gives: GIV-Gai inh, Sa growth inh, Sa growth inh second temp, HCMV NEC inh
O=C(CSc1ccc(Cl)cc1)c1cccs1
  nt, 68, 30, -6
COc1ccc(S(=O)(=O)N2CCC3(CC2)Nc2cc(OC)ccc2-n2cccc23)cc1
  105, nt, nt, -25
O=c1ccc(-c2ccc(S(=O)(=O)Nc3ccccc3)s2)n[nH]1
  103, 92, 82, -72
CCOC(=O)N1CCN(C(=O)C(C)(C)Oc2ccc(Cl)cc2)CC1
  102, 95, 89, -11
CN(Cc1ccco1)S(=O)(=O)c1nnc(NC(=O)c2ccccc2)s1
  101, 152, 27, -10
CC(=O)Nc1nonc1Nc1csc(CC#N)n1
  nt, 105, 84, -5
COc1ccc2nc(Cl)c(C#N)cc2c1
  96, 104, 92, -34
Cc1cc(C)nc(NCCC(=O)O)n1
  105, 107, 95, -42
CN(CCc1ccccn1)C(=O)c1cc(-c2cccs2)nc2ccccc12
  nt, 130, 86, -39
Cc1cccc(-c2noc(CN(C(=O)c3ccc(Br)o3)C(C)C)n2)c1
  107, 96, 71, -2

# Further structures.
# Every second line gives: GIV-Gai inh, Sa growth inh, Sa growth inh second temp, HCMV NEC inh
Cc1csc2nc(COC(=O)c3ccc(NC(=O)COc4ccccc4F)cc3)cc(=O)n12
  108, 72, 54, nt
CCCc1nnc(NC(=O)c2ccccc2)s1
  nt, 115, 91, 1
O=C(NCc1ccncc1)C12CC3CC(CC(C3)C1)C2
  nt, 81, 91, -20
CCc1ccc2occ(CC(=O)Nc3ccc(C)c(C)c3)c2c1
  106, 114, 99, 11
CC(C)OC(=O)CSc1nc(N)c(C#N)cc1C#N
  102, 100, 97, -17
Cc1ccc(NC(=O)C(Cc2ccccc2)NS(=O)(=O)c2ccc3c(c2)oc(=O)n3C)cc1C (stereo unspecified)
  98, 103, 93, -15
c1ccc(-n2c(COCc3nc4cccnc4n3-c3ccccc3)nc3cccnc32)cc1
  104, nt, nt, -18
CCN(CC(=O)NCc1ccc2c(c1)OCO2)S(=O)(=O)c1ccc(F)cc1
  101, 91, 89, -23
Cc1c(C(=O)O)[nH]c2c1/C(=N/N1CC(=O)NC1=O)CC(C)(C)C2
  nt, 92, 89, -21
CCCCn1c(SCC(=O)OC)nc2ccccc2c1=O
  97, 111, 84, -21

# An excerpt of these results, as labelled records.
c1ccc(-n2c(COCc3nc4cccnc4n3-c3ccccc3)nc3cccnc32)cc1
- GIV-Gai inh: 104
- Sa growth inh: nt
- Sa growth inh second temp: nt
- HCMV NEC inh: -18

CCN(CC(=O)NCc1ccc2c(c1)OCO2)S(=O)(=O)c1ccc(F)cc1
- GIV-Gai inh: 101
- Sa growth inh: 91
- Sa growth inh second temp: 89
- HCMV NEC inh: -23

Cc1c(C(=O)O)[nH]c2c1/C(=N/N1CC(=O)NC1=O)CC(C)(C)C2
- GIV-Gai inh: nt
- Sa growth inh: 92
- Sa growth inh second temp: 89
- HCMV NEC inh: -21

# 4 of these compounds, set out differently:
CCc1ccc2occ(CC(=O)Nc3ccc(C)c(C)c3)c2c1
  GIV-Gai inh: 106 | Sa growth inh: 114 | Sa growth inh second temp: 99 | HCMV NEC inh: 11
CC(C)OC(=O)CSc1nc(N)c(C#N)cc1C#N
  GIV-Gai inh: 102 | Sa growth inh: 100 | Sa growth inh second temp: 97 | HCMV NEC inh: -17
CCCCn1c(SCC(=O)OC)nc2ccccc2c1=O
  GIV-Gai inh: 97 | Sa growth inh: 111 | Sa growth inh second temp: 84 | HCMV NEC inh: -21
CCCc1nnc(NC(=O)c2ccccc2)s1
  GIV-Gai inh: nt | Sa growth inh: 115 | Sa growth inh second temp: 91 | HCMV NEC inh: 1

# Next part
# Every second line gives: GIV-Gai inh, Sa growth inh, Sa growth inh second temp, HCMV NEC inh
COc1cccc(C(=O)Nc2ccccc2Cl)c1
  110, 99, 93, -35
COc1cc(OC)c(NC(=O)Cn2ncc3c(=O)oc4ccc(C)cc4c32)cc1Cl
  97, 96, 88, -24
Cc1cc2nc(CSc3nnc(NC(=O)CC(C)C)s3)cc(=O)n2o1
  102, nt, nt, -15
COc1ccc(-c2cc(OC(=O)c3cccc(C)c3)c3c(C)oc(C)c3c(=O)c2)cc1
  115, 104, 90, 8
Cc1ccc(CNC(=O)CCc2c(C)nn(-c3ccc(N4CCCCC4)nn3)c2C)cc1
  96, 80, 85, nt
CCCNC(=O)CN=C1NS(=O)(=O)C(c2ccc(C)cc2)=C1CC
  104, 94, 91, -48
O=C(NCCc1ccc(Cl)cc1)c1ccc(CSCc2cccc(Cl)c2)o1
  107, 115, 97, nt
COc1ccc(/C=C/C(=O)NCc2ccco2)cc1OC
  nt, 84, 98, -34
CCOC(=O)Cn1c(=O)c(-c2cc(Br)ccc2NC)nc2cc3ccccc3cc21
  99, nt, nt, 0
CCOc1ccccc1NC(=O)COC(=O)c1cc(Cl)ccc1Cl
  nt, 131, 93, 10

# Source: PubChem (ICCB-Longwood Screening Facility, Harvard Medical School)

# Rows were taken by chance; 0.85% or so of the library scored in one or more.
